Mtb bLac sens = beta-lactam sensitization of Mtb H37Rv | M. tuberculosis H37Rv growth with meropenem, percent inhibition; hits of this screen are not shown here | inhibition, % at 25 µM | actives 0.27% (n = 330,000);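 active = about 74% or more and at least 40 points above the plate without the antibiotic, then above 30% in a dose series; inconclusive = first-round hits that could not be retested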;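 note: growth measured after seven days incubation then overnight dye step; 0% = bacteria only wells and 100% = bacteria with antibiotic; twin plates without the antibiotic show which effects depend on it; some results filed as inactive read as strong as hits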
RecA intein inh = Mtb RecA intein splicing inhibition; AID 2221; inhibition, %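 (about 9 µM by stock and volumes)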; cell-free RecA intein splicing, fluorescence; actives 0.75% (n = 290,000); P9WHJ3; in the data active = inhibition above about 30%; inconclusive = no clear call, values can overlap the other calls;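 note: 0% = vehicle wells and 100% = reference inhibitor control wells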
Target sequence (P9WHJ3 whole entry, looked up): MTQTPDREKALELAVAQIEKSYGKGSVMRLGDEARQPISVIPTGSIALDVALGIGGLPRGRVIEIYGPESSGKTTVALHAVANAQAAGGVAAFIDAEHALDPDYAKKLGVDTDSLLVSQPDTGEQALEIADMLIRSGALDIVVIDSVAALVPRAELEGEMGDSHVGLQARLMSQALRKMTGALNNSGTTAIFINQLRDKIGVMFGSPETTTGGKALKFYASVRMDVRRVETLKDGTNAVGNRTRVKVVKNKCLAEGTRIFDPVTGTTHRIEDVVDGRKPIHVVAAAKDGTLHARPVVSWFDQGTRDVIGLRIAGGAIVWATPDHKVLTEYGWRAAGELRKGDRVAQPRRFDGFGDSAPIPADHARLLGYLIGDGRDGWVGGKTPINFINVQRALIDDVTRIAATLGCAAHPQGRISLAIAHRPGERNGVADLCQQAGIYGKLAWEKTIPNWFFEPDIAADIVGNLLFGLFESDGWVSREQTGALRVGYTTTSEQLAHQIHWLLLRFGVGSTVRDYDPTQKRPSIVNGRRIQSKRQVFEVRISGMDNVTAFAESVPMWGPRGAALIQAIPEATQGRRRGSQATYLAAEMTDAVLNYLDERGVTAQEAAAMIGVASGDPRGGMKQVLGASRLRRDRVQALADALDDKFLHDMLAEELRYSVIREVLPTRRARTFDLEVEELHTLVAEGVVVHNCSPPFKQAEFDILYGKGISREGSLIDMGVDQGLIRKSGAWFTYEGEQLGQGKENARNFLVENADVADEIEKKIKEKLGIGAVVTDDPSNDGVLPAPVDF
Mtb H37Rv = M. tuberculosis H37Rv growth inhibitors, H37Rv strain (AID 1626); M. tuberculosis H37Rv growth inhibition; higher % means a stronger effect; one-dose inhibition, % at 10 µM; IC50 in µM for titrated hits; actives 0.95% (n = 220,000);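 active = confirmed in a dose series; inconclusive = inhibition above 80% but not taken into the dose series; inactive = below 80% or under 30% at every dose of the series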;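 note: bacteria incubated seven days before Alamar blue readout; 0% = bacteria only wells and 100% = bacteria with antibiotic wells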
Arbovirus anti = blocks arbovirus infection; arbovirus infection cell-based antiviral screen; AID 1251; inhibition, % at 10 µM; actives 0.37% (n = 200,000);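 active = inhibition from about 30%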;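 note: bluetongue infection of BSR cells; cell survival read as ATP light after 72 h; 0% = infected wells without compound and 100% = uninfected wells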
YopH inh = blocks Yersinia enterocolitica YopH tyrosine phosphatase; actives 0.16% (n = 140,000); inhibition, %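 (about 10 µM by stock and volumes)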; fluorescence Ex485/Em525;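 active = inhibition of 50% or more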;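 note: controls were vehicle for no effect and minimum signal wells for full effect; inactives centre near -20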
Arbovirus anti repeat = also measured in Arbovirus anti; calls as there; inhibition, %; measured here: 10K subset replicate screen; many hits read low in the repeat;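 first of two repeat runs on a subset; 0% = infected and 100% = uninfected wells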
* marks the source's active call; other numbers are inactive results; ? = inconclusive; nt = no result given. These rows are one share of the data; the hit share may differ from the screen's.

SMILES	Mtb bLac sens	RecA intein inh	Mtb H37Rv	Arbovirus anti	YopH inh	others
Cc1ccc2c(c1)N(CCC(=O)N1CCC3(CC1)OCCO3)C(=O)CO2	-5	0.4	2%	3	-11
Cc1ccc(OCc2n[nH]c(=S)n2C2CCCCC2)cc1	5	-2.9	6%	-11	-4
CCOc1ccc(NS(=O)(=O)c2ccc(C)c(C(N)=O)c2)cc1	0	1.0	1%	9	nt
NC(Cc1ccc(O)cc1)c1cn([C@@H](CCC(=O)O)C(=O)N2CCNCC2)nn1 (some centres undefined)	-2	-0.2	-13%	6	nt
O=C(O)CNC(=O)c1ccccc1F	-8	1.7	-9%	nt	-33
C=C(C)CSc1nnc(-c2ccc(OC)c(OC)c2)n1N	-26	-1.1	-14%	6	-3	Arbovirus anti repeat=2
CCC(CC)c1nnc(NC(=O)Cc2cccs2)s1	-2	-0.9	-1%	10	nt
CC(C)(C)NC(=S)N1CCn2cccc2C1c1cccnc1 (centres undefined)	12	-2.3	-9%	1	nt
O=C(Cn1nc2n(c1=O)-c1ccccc1SC2)N/N=C/c1cccs1	-6	-3.0	-3%	nt	nt
COCCOC(=O)c1c(C)oc2ccc(OCC=C(C)C)cc12	20	20	-11%	-4	-6	Arbovirus anti repeat=-4
CCC(C)C(=O)Nc1nc2ccc(S(C)(=O)=O)cc2s1 (centres undefined)	-2	1.7	1%	-7	nt
CCOC(=O)C1(Cc2ccccc2C(F)(F)F)CCN(C(=O)c2cc(C(C)=O)n[nH]2)CC1	-1	1.5	0%	4	nt
CCC(C)NC(=O)c1ccc(CSCc2ccccc2Cl)o1 (centres undefined)	9	5.4	nt	nt	nt
CCOC(=O)c1c(NC(=O)CN2C(=O)NC3(CCC(C)CC3)C2=O)sc(C)c1CC (centres undefined)	-3	-2.2	nt	nt	nt
COc1ccc(S(=O)(=O)N(C)c2ccc(C(=O)NCC3CCCO3)cc2)cc1 (centres undefined)	-13	-1.5	-1%	-1	12
Cc1[nH]nc2c1C(c1ccc(F)cc1)C(C#N)=C(N)O2 (centres undefined)	1	nt	-3%	-7	-39
CS(=O)(=O)NCCNc1ncc(C(F)(F)F)cc1Cl	0	-1.1	-1%	4	nt
COc1ccccc1CNC(=O)c1cc(-c2ccccc2)nn1CC1CC(c2cccc([N+](=O)[O-])c2)=NO1 (centres undefined)	25	5.8	3%	nt	nt
Cc1ccc(C(=O)Cn2c3[n+](c4ccccc42)CC(O)CS3)cc1 (centres undefined)	6	1.0	-5%	8	nt
Nc1c(C(O)(C(F)(F)F)C(F)(F)F)ccc2ccccc12	nt	0.2	3%	-13	-41
CNC1(c2nnnn2-c2ccccc2C)CCOC(C)(C)C1 (centres undefined)	-8	-1.8	1%	nt	nt
COc1ccc(N2C(=NC(=O)C3CCCO3)SC3CS(=O)(=O)CC32)cc1 (centres undefined)	-16	3.3	nt	nt	nt
CCn1c(=NC(=O)c2ccco2)sc2cccc(F)c21	62	2.2	?	-3	-54
Cc1nc2c(F)c(F)c(C(F)(F)F)c(F)c2[nH]1	-7	10	11%	7	-7
O=C(COc1ccc(Cl)cc1Cl)OCC(=O)N1CCCc2ccccc21	-1	12	-2%	0	6

An excerpt from above in order of heavy-atom count, descending:
SMILES	Mtb bLac sens	RecA intein inh	Mtb H37Rv	Arbovirus anti	YopH inh	others
COc1ccccc1CNC(=O)c1cc(-c2ccccc2)nn1CC1CC(c2cccc([N+](=O)[O-])c2)=NO1 (centres undefined)	25	5.8	3%	nt	nt
CCOC(=O)C1(Cc2ccccc2C(F)(F)F)CCN(C(=O)c2cc(C(C)=O)n[nH]2)CC1	-1	1.5	0%	4	nt
CCOC(=O)c1c(NC(=O)CN2C(=O)NC3(CCC(C)CC3)C2=O)sc(C)c1CC (centres undefined)	-3	-2.2	nt	nt	nt
NC(Cc1ccc(O)cc1)c1cn([C@@H](CCC(=O)O)C(=O)N2CCNCC2)nn1 (some centres undefined)	-2	-0.2	-13%	6	nt
COc1ccc(S(=O)(=O)N(C)c2ccc(C(=O)NCC3CCCO3)cc2)cc1 (centres undefined)	-13	-1.5	-1%	-1	12
COc1ccc(N2C(=NC(=O)C3CCCO3)SC3CS(=O)(=O)CC32)cc1 (centres undefined)	-16	3.3	nt	nt	nt
O=C(Cn1nc2n(c1=O)-c1ccccc1SC2)N/N=C/c1cccs1	-6	-3.0	-3%	nt	nt
Cc1ccc(C(=O)Cn2c3[n+](c4ccccc42)CC(O)CS3)cc1 (centres undefined)	6	1.0	-5%	8	nt
CCOc1ccc(NS(=O)(=O)c2ccc(C)c(C(N)=O)c2)cc1	0	1.0	1%	9	nt
CCC(C)NC(=O)c1ccc(CSCc2ccccc2Cl)o1 (centres undefined)	9	5.4	nt	nt	nt
C=C(C)CSc1nnc(-c2ccc(OC)c(OC)c2)n1N	-26	-1.1	-14%	6	-3	Arbovirus anti repeat=2
CCn1c(=NC(=O)c2ccco2)sc2cccc(F)c21	62	2.2	?	-3	-54
CCC(CC)c1nnc(NC(=O)Cc2cccs2)s1	-2	-0.9	-1%	10	nt
Cc1nc2c(F)c(F)c(C(F)(F)F)c(F)c2[nH]1	-7	10	11%	7	-7
O=C(O)CNC(=O)c1ccccc1F	-8	1.7	-9%	nt	-33

(next part)
SMILES	Mtb bLac sens	RecA intein inh	Mtb H37Rv	Arbovirus anti	YopH inh	others
CC(O)c1nc2ccccc2n1CCCc1ccccc1 (centres undefined)	0	4.1	nt	nt	nt
CCOC(=O)N1CCN(C(=O)c2c[nH]c3ccc(S(=O)(=O)N(C)c4ccccc4C)cc3c2=O)CC1	-13	-1.9	nt	nt	nt
CC(C)c1cc[n+](-c2nc([O-])sc2C=O)cc1	-6	13	-10%	7	-29
Cc1ccc(/C=N/NC(=O)c2ccc3nc[nH]c3c2)s1	1	0.3	6%	-2	nt
Cc1cnc(NC(=O)CSc2nnc(COc3ccccc3)o2)s1	-4	nt	-5%	nt	nt
N#Cc1c(N)nc2c(c1N)CC(=O)N2c1ccc(Cl)cc1	5	-0.2	0%	6	3
O=C(CSc1nc2c(c(=O)n1-c1ccc(F)cc1)SCC2)NCc1ccco1	0	nt	-14%	6	-34	Arbovirus anti repeat=5
CCOC(=O)Nc1nnc(/C=C/c2ccc(OC)cc2)s1	22	-1.6	-6%	14	1
O=C(CSc1nc2ncccc2[nH]1)c1ccc(F)cc1	-4	-0.8	-2%	0	-15
Cc1cccc(OC(=O)c2cncc(Br)c2)c1	37	nt	2%	-1	nt
COc1ccc(CN2CCNC(=O)C2CC(=O)N(C)CCCN2CCOCC2)cc1C (centres undefined)	-3	-5.8	nt	nt	nt
COc1ccc(C(=O)N2CCCC(C(=O)N3CCN(c4ccccc4)CC3)C2)cc1 (centres undefined)	-7	1.3	-9%	nt	nt
Cc1ccc(S(=O)(=O)Nc2cccc3ncccc23)s1	97	-1.1	7%	-46	-55
CC(C)CC(N)C(=O)OCc1ccc([N+](=O)[O-])cc1 (centres undefined)	-15	nt	-10%	nt	nt
CC(=O)N(C)Cc1ccc(C(=O)CCl)cc1	9	37*	-5%	-33	nt
O=C(Nc1nc(-c2ccc3c(c2)OCCO3)cs1)c1ccc(S(=O)(=O)N2CCCCC2)cc1	93	-9.2	9%	6	-3
O=C1NCC(=O)N2CCC[C@@H]12	-8	-0.9	8%	nt	nt
C#CCOc1ccc2c(c1)c(C(C)=O)c(C)n2Cc1ccccc1	98	16	35%	nt	nt
CC1CCC2C(=O)N(c3ccccc3OC(=O)c3ccccc3F)C(=O)C2C1 (centres undefined)	3	1.4	5%	8	nt
COc1ccc(-n2c(=O)c3c4c(sc3n3c(=S)[nH]nc23)CCCC4)cc1	3	0.6	-2%	2	-26
CC(C(=O)O)N1C(=O)c2ccccc2C1=O (centres undefined)	-14	0.3	-9%	3	5
O=C(Nc1cccc(Cl)c1Cl)c1ccccc1NC(=O)C1CC=CCC1C(=O)O (centres undefined)	-2	-0.7	nt	nt	nt
CCN(CC)S(=O)(=O)c1csc(C(=O)Nc2ccccn2)c1	-1	-0.6	-3%	3	-33
CN(C(=O)CSc1nncc2ccccc12)C1CCCCC1	-4	6.7	0%	-1	nt
COc1ccc(N2C(=O)C3C4C=CC(C4)C3C2=O)c([N+](=O)[O-])c1 (centres undefined)	2	-1.6	8%	5	nt

(list continues)
SMILES	Mtb bLac sens	RecA intein inh	Mtb H37Rv	Arbovirus anti	YopH inh	others
COCc1c(C(=O)Nc2nc(C)cs2)oc2ccccc12	6	-0.4	12%	0	nt
O=C(N/N=C/c1cn(-c2cccs2)nc1-c1ccccc1)c1ccc(O)cc1	84	4.2	8%	-40	-48
COc1ccc(-c2cc(=O)oc3cc(OCc4nn[nH]n4)ccc23)cc1	-3	0.1	-15%	3	-45
COCCCn1c(C23CC4CC(CC(C4)C2)C3)n[nH]c1=S	-3	-0.6	nt	nt	nt
CCCc1ncc(C(O)c2ccccc2OC)n1C (centres undefined)	-3	0.0	-12%	-1	nt
O=C(COc1ncnc2cc([N+](=O)[O-])ccc12)NC(=O)NC1CCCCC1	4	-4.4	5%	4	nt
Cc1cc(N)n(-c2nc(-c3cccnc3)nc3ccccc23)n1	-10	0.2	7%	-16	-31
C/C(=N\NC(=O)c1c(Br)c(C)nn1C)c1ccc(NC(=O)C(C)Oc2ccc(Cl)cc2C)cc1 (centres undefined)	71	-17	25%	-22	-27
CN(C(=O)CC1C(=O)NCCN1Cc1cccc(F)c1F)C1CCOCC1 (centres undefined)	-9	-2.6	nt	nt	nt
CCCc1nc2ccccc2n1CC(O)COc1ccc(NC(C)=O)cc1 (centres undefined)	-4	nt	4%	7	nt
NNC(=O)c1ccc(CSc2nc3ccccc3[nH]2)cc1	-2	-0.2	8%	-13	nt
Cc1cc(Nc2cccc(F)c2)n2c(n1)nc1ccccc12	5	0.0	0%	24	2
CCOC(=O)c1c(/N=C/c2cc(C)ccc2O)sc2c1CCC2	0	1.3	3%	-10	-9
O=C(COc1ccccc1F)N1CCN(CCN2C(=O)c3cccc4cccc(c34)C2=O)CC1	-9	-6.9	-2%	-4	nt
CNC(=S)Nc1ccc(C(N)=O)cc1	0	-1.2	1%	0	nt
c1nc(NC2CCCCCC2)c2[nH]cnc2n1	8	-2.0	4%	5	-10
O=C1C2C3C=CC(C3)C2C(=O)N1c1ccc2c(c1)CCC2 (centres undefined)	nt	-0.5	-6%	-2	-49
O=C(CSc1nc(N2CCOCC2)nc(N2CCOCC2)n1)Nc1ccc([N+](=O)[O-])cc1	-1	-6.6	nt	nt	nt
O=C(Nc1cccc(F)c1)C1CCN(C(=O)NCc2ccccc2)CC1	-7	-1.1	nt	nt	nt
Cc1ccc(CCNC(=O)CCS(=O)(=O)Cc2ccc(C)cc2)cc1	0	-1.2	nt	nt	nt
CN(Cc1c[nH]c2ccccc12)C1CCCCC1	0	-1.4	-1%	19	-27
O=C(COC(=O)c1n[nH]c2ccccc12)NC(=O)NC12CC3CC(CC(C3)C1)C2	4	-2.1	3%	14	-36
COc1ccccc1C(=O)N/C(=C/c1ccc(Br)cc1)C(=O)N1CCCC1	3	3.8	-3%	1	nt
COc1ccc(C(=O)NCCOc2ccccc2Cl)c(OC)c1OC	5	-3.0	nt	nt	nt
CS(=O)(=O)N1CCN(c2ccc(NC(=O)c3cccnc3Cl)cc2)CC1	-3	3.1	0%	-2	-3

Next section, starting with the last 2 of the part before.
SMILES	Mtb bLac sens	RecA intein inh	Mtb H37Rv	Arbovirus anti	YopH inh	others
COc1ccc(C(=O)NCCOc2ccccc2Cl)c(OC)c1OC	5	-3.0	nt	nt	nt
CS(=O)(=O)N1CCN(c2ccc(NC(=O)c3cccnc3Cl)cc2)CC1	-3	3.1	0%	-2	-3
Cc1ccnc(NC(=O)CNC(=O)c2ccc(Br)o2)c1	-11	-0.4	nt	nt	nt
CCCC(O)(CCN1CCCCC1)c1ccc(OCC)cc1 (centres undefined)	-3	-2.1	-3%	12	-45
CCCCC(=O)NC(c1ccco1)c1c(O)ccc2ccccc12 (centres undefined)	-4	2.4	-10%	8	-11
O=C(NN=C1CCCC1)NC1CCCCC1	-2	-0.5	1%	6	-16
O=S(=O)(NC1=NCCCCC1)c1ccc2sc(NS(=O)(=O)c3ccc4ccccc4c3)nc2c1	-7	1.6	10%	nt	nt
Cc1noc(C)c1C(=O)OCC(=O)Nc1cccc(S(N)(=O)=O)c1	-1	-0.6	-5%	2	nt
CCOc1ccccc1C(=O)N/N=C/c1c[nH]c2ccccc12	1	-0.3	4%	2	nt
O=c1c(C=NCC2CCCO2)c(-c2ccccc2)[nH]n1-c1ccc([N+](=O)[O-])cc1 (centres undefined)	0	-2.1	6%	nt	nt
Cc1nc2ncnn2c(N2CCN(c3cccc(C(F)(F)F)c3)CC2)c1C	48	3.2	13%	3	-9
COc1cccc(CN(C(=O)Cn2nnc(-c3ccccc3F)n2)C(C(=O)NC(C)(C)C)c2ccncc2)c1 (centres undefined)	-1	-3.4	4%	-5	nt

Screening results from PubChem BioAssay.
